# Sa ugtP lethal: kills S. aureus RN4220 lacking UgtP | S. aureus RN4220 ugtP deletion, OD600 growth, 16 h; some inactives read as strong as hits | 330,000 tested, 0.54% active | growth inhibition, % (test concentration not listed);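 active means z-score under -3 and OD600 up to 0.15 on both plates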;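 further: plate controls were untreated wells for no effect and antibiotic for full effect; wells of about 80 µL received 100 nL stock; the first replicate is given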
# Autofluor counter: compound fluorescence in toxin protease inhibitor counterscreen | 360,000 tested, 3.1% active | compound autofluorescence counterscreen, microsphere flow cytometry; stronger effect = higher value | fluorescence intensity (concentration not given with the values);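 active means at least 3 SD above the mean of all compounds, about 16000 in these data; inconclusive means too few beads counted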;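 further: 100 nL of 1 mM stock went into each well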
# Sa RN4220 lethal: kills Staphylococcus aureus RN4220. S. aureus RN4220 growth, OD600, 16 h. inhibition, % (test concentration not listed). 330,000 tested, 0.33% active. AID 1259311;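 active means z-score of -3 or lower and OD600 up to 0.18 on both plates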;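 further: plate controls were untreated cells for no effect and reference antibiotic for full effect; stock transfer was 100 nL into about 80 µL; one replicate is shown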
# PrP UTR inh: suppresses PrP 5' UTR mRNA reporter expression | cell-based PrP 5' UTR mRNA reporter, plate reader | inhibition, % (test concentration not listed) | 340,000 tested, 0.35% active;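 active means every replicate at 50% or more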;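 further: 0 = median of the neutral control wells; tested in H4 reporter cells; numbers are from one replicate; inactives centre near -14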
# Mtb hypoxia rep: Mtb hypoxia fluorescent reporter inhibition | M. tuberculosis hypoxia-regulated fluorescent reporter, fluorescence | AID 1159583 | fluorescence inhibition, % (concentration not given with the values) | 300,000 tested, 0.1% active;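 active means 35 to 45% if threefold the growth effect, above 45% if 1.5-fold the growth effect; inactive means the rest, general growth blockers included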;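 further: wells of about 50 µL received 100 nL stock; 0% = vehicle wells and 100% = reference inhibitor wells; whole bacteria with a GFP reporter of the hypoxia response; strong numbers were not always called active; many hits fall short of the cut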
# BJeLR lethal: kills HRASV12-expressing BJeLR cells; BJeLR (HRASV12) viability, CellTiter-Glo ATP luminescence, 48 h; reference of the scale not given here; inhibition, % (no concentration beside the values); 300,000 tested, 0.17% active;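 active means replicate mean above 50%; inconclusive means above 50% but judged a plate artefact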;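 further: 50 nL library stock added to about 25 µL; numbers are from one replicate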
# Mtb hypoxia rep growth: further read-out of Mtb hypoxia rep, marked with its call; growth inhibition, %; measured here: M. tuberculosis growth (absorbance);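 0% = vehicle and 100% = reference antibiotic; read after six days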
# The depositor's hits bear a star; ? = inconclusive; / = no result given.
SMILES,Sa ugtP lethal,Autofluor counter,Sa RN4220 lethal,PrP UTR inh,Mtb hypoxia rep,Mtb hypoxia rep growth,BJeLR lethal
COc1ccccc1C(=O)NCC(c1cccnc1)N(C)C (stereo unspecified),-4.6,5734,0.1,-10.4,2.5,8.4,15.0
O=C(CCNc1n[nH]c(=O)[nH]c1=O)N1CCOCC1,0.9,22002*,1.4,-3.4,-2.9,3.9,1.9
Cc1ccc(NC(=O)c2cnc(N3CCN(c4ccccn4)CC3)c3ccccc23)c(Br)c1,8.8,3778,29.1,4.4,-4.3,17.0,4.6
COc1ccc(C(=O)NCC(=O)NN=Cc2cccnc2)cc1OC,1.1,/,1.8,/,-7.2,-6.4,/
COCCN1C(=O)c2cc(C(=O)Nc3ccc(C)c(F)c3)ccc2C1Nc1ccc(C)c(F)c1 (stereo unspecified),1.0,5430,-3.4,-17.0,-4.9,-5.7,-8.7
CCCCC(=O)Nc1nc(C)c(C(C)=O)s1,13.0,6253,3.3,4.9,11.3,3.3,1.2
Cc1c(-c2ccccc2)cnc2c(C)cccc12,65.6,4046,1.2,-18.1,1.4,7.8,-4.0
COc1cc(C(=O)NCC(=O)NN=C(C)Cc2ccccc2)cc(OC)c1OC,1.7,/,-0.4,/,2.5,3.8,/
Cc1cc(NC(=O)Cn2ccsc2=N)c([N+](=O)[O-])cc1C,18.1,3530,4.8,-12.1,-1.3,9.0,-1.0
CCc1ccc(N2C(=O)CC(N(CC3CCCO3)C(=O)/C=C/C(=O)O)C2=O)cc1 (stereo unspecified),-0.9,2182,-0.7,-30.9,-7.4,5.3,-3.5
CCCn1c(CNS(=O)(=O)c2ccc(C)cc2)nc2ccccc21,-0.6,5879,-1.2,-28.7,7.7,8.0,7.0
CC(C)N(C(=O)COC(=O)[C@@H]1CC(O)CN1S(=O)(=O)c1ccccc1[N+](=O)[O-])C(C)C (stereo partly specified),13.1,2078,4.7,-23.3,8.4,5.2,-10.6
COc1ccc(NC(=S)N(CCc2c(C)[nH]c3ccccc23)Cc2ccco2)cc1,-0.1,6030,-2.6,-13.1,1.6,2.8,-0.7
CCOC(=O)CNC(=O)C1COc2ccccc2O1 (stereo unspecified),6.6,4222,3.5,-8.3,-9.3,-3.1,-0.9
CS(=O)(=O)c1ccc2nc(NC(=O)C3CC(=O)N(c4ccccc4)C3)sc2c1 (stereo unspecified),4.9,5885,4.9,-16.1,12.0,0.6,-8.0
O=C(OCC(=O)c1cccs1)c1ccc([N+](=O)[O-])o1,2.4,3887,2.7,-21.9,18.3,5.2,-0.5
O=C(C(Cc1ccccc1)n1cccc1)N1CCCCCC1 (stereo unspecified),-6.4,4392,5.2,-0.5,7.9,6.8,3.2
Cc1cc(Cl)n2c(nc3ccccc32)c1C#N,72.6,4318,60.6,24.5,/,/,61.2*
Cc1ccc(S(=O)(=O)NCC(=O)OCc2ccccc2Br)cc1,-2.5,3708,4.8,3.3,-1.6,0.2,-7.2
Cc1ccccc1NS(=O)(=O)c1nnc(NC(=O)c2ccc(Cl)cc2)s1,16.5,5346,25.3,-8.8,4.5,6.1,4.6
Cc1ccc(CCNC(=O)c2ccc(CS(=O)(=O)Cc3ccccc3F)o2)cc1,2.9,23305*,6.2,-22.7,6.1,2.6,-13.0
Cc1noc(C)c1COc1ccccc1C(=O)NCc1ccccc1Cl,3.5,/,10.7,-57.2,9.0,17.2,-1.2
Cc1onc(-c2ccccc2)c1C(=O)NN=Cc1cc2c(cc1Br)OCO2,-11.3,/,0.0,/,-5.1,0.3,/
Cc1[nH]c(C)c(S(=O)(=O)NCc2ccc(OC(C)C)cc2)c1C(=O)N1CCCC1,1.0,4788,6.7,0.5,-9.4,-5.0,-10.1
Nc1ccc2ccccc2c1,-1.3,4733,3.0,-17.6,3.4,3.4,/
SMILES,Sa ugtP lethal,Autofluor counter,Sa RN4220 lethal,PrP UTR inh,Mtb hypoxia rep,Mtb hypoxia rep growth,BJeLR lethal
C=CCC(=O)NC1CC(C)(C)Cc2c1cnn2-c1ccccc1C (stereo unspecified),3.9,3713,0.8,-13.2,7.9,12.8,4.8
Cc1ccccc1NC(=O)CS(=O)(=O)c1cn(CC(=O)N2CCOCC2)c2ccccc12,6.2,5290,1.9,-9.5,5.8,-1.2,-5.1
COc1ccccc1NS(=O)(=O)c1cc(NC(=O)c2ccc(Cl)nc2)ccc1Cl,-10.6,8168,-1.0,-26.0,3.1,-5.8,-8.1
COc1ccc(CCNC(=O)CN2CCN(Cc3ccc(F)cc3)C2=O)cc1OC,-3.0,5513,2.1,-17.6,5.4,-0.4,-0.5
CCn1c(=O)c2c3c(sc2n2cnnc12)CCC3,0.3,2580,5.3,-11.3,3.6,1.7,-5.5
Nc1ccc(-c2sc(N)nc2-c2ccccc2)cc1,15.1,10112,1.3,-13.5,5.7,2.5,-2.3
CCOC(=O)NN=C/C=C/c1ccccc1,-0.1,/,4.7,/,1.5,11.7,/
C=CCOc1ccc2ccccc2c1CNn1cn[nH]c1=S,1.4,3237,-0.5,-6.9,2.2,16.4,-9.0
Cc1ccc(CN2CCN(Cc3cnc(C)[nH]3)CC2CCO)cc1 (stereo unspecified),11.6,4105,5.1,-11.7,8.5,3.0,10.4
COc1cc(OC)cc(C2=NC3(CCC(C)CC3)NC2=S)c1 (stereo unspecified),52.0,6567,-1.8,-25.2,-2.8,1.2,-5.2
O=C(CC1NCCNC1=O)Nc1ccccc1 (stereo unspecified),2.0,3761,1.8,-20.0,5.7,1.5,5.1
Cc1ccc(N(Cc2ccc(C(=O)Nc3c(C)n(C)n(-c4ccccc4)c3=O)cc2)S(C)(=O)=O)cc1C,6.3,4501,0.0,1.6,-0.2,0.4,6.8
N#CC(=NNc1ccccc1)C(=N)N1CCCCCC1,-6.6,/,4.2,/,6.7,13.5,/
O=C(NCC1CCCO1)c1ccc(NS(=O)(=O)c2ccccc2)cc1 (stereo unspecified),8.8,3640,6.0,-7.4,11.0,6.8,0.4
CC(=O)OC1CCC2(C)C(CCC3C2CC(=O)C2(C)C3CC(C3CCCC3=O)C2C(C)=O)C1 (stereo unspecified),-12.6,3742,1.4,-0.9,-14.4,1.5,/
CC(NC(=O)COC(=O)[C@@H]1CCCN1S(=O)(=O)c1ccccc1F)C12CC3CC(CC(C3)C1)C2 (stereo partly specified),-17.3,1968,4.6,-30.3,0.5,-2.9,-6.5
CCN(CC)c1nc2cc(OC)ccc2cc1C#N,5.9,5562,6.8,-4.0,-2.0,-1.7,-2.9
N#Cc1cccc(NC(=O)CSc2ccc3c4c(cccc24)C(=O)c2ccccc2-3)c1,-3.9,7954,-1.4,-43.4,1.5,0.4,-3.6
Cc1ccc(-n2cnc(=O)c3cccnc32)cc1,1.2,5350,6.5,-15.1,6.0,10.8,6.5
CN(c1ccccc1)S(=O)(=O)c1cccc(NC(=O)CSc2nncn2C)c1,9.6,2554,7.4,-11.1,12.5,0.6,-0.3
CCOC(=O)c1c(NC(=S)Nc2ccccc2C)sc2c1CCC2,-3.8,2204,2.0,-13.8,6.1,-2.2,-1.5
Cc1cccc(C)c1NC(=O)C1(NC(=O)C2CCC(=O)N2)CCCCC1 (stereo unspecified),5.7,2095,2.5,-13.2,11.2,1.4,-11.0
O=C(O)CN1C(=O)C2C3CC(C2C1=O)C1C(c2ccccc2)c2sc(=O)[nH]c2SC31 (stereo unspecified),4.3,2173,2.2,-0.5,0.2,13.1,3.4
Nc1ccc(C(=O)N/N=C\C=C\c2cccc([N+](=O)[O-])c2)cc1,/,2850,/,-7.4,/,/,-11.6
OCC[C@@H]1C[C@H](O)[C@@H](O)[C@]2(CCCO2)O1,/,2969,/,-17.0,/,/,-1.1

# Exported bar-delimited: 5 of the compounds above
smiles | Sa ugtP lethal | Autofluor counter | Sa RN4220 lethal | PrP UTR inh | Mtb hypoxia rep | Mtb hypoxia rep growth | BJeLR lethal
CC(=O)OC1CCC2(C)C(CCC3C2CC(=O)C2(C)C3CC(C3CCCC3=O)C2C(C)=O)C1 (stereo unspecified) | -12.6 | 3742 | 1.4 | -0.9 | -14.4 | 1.5 | /
Cc1ccc(N(Cc2ccc(C(=O)Nc3c(C)n(C)n(-c4ccccc4)c3=O)cc2)S(C)(=O)=O)cc1C | 6.3 | 4501 | 0.0 | 1.6 | -0.2 | 0.4 | 6.8
CC(NC(=O)COC(=O)[C@@H]1CCCN1S(=O)(=O)c1ccccc1F)C12CC3CC(CC(C3)C1)C2 (stereo partly specified) | -17.3 | 1968 | 4.6 | -30.3 | 0.5 | -2.9 | -6.5
N#CC(=NNc1ccccc1)C(=N)N1CCCCCC1 | -6.6 | / | 4.2 | / | 6.7 | 13.5 | /
Nc1ccc(C(=O)N/N=C\C=C\c2cccc([N+](=O)[O-])c2)cc1 | / | 2850 | / | -7.4 | / | / | -11.6

# (listing goes on)
SMILES,Sa ugtP lethal,Autofluor counter,Sa RN4220 lethal,PrP UTR inh,Mtb hypoxia rep,Mtb hypoxia rep growth,BJeLR lethal
O=C(CCCOc1ccc(Cl)cc1Cl)N1CCc2ccccc2C1,-3.3,5991,9.4,-10.1,9.6,-1.5,1.0
COc1ccc(C2NC(=S)NC(C)=C2C(=O)Nc2ccccn2)cc1 (stereo unspecified),7.9,2255,4.3,-41.9,-0.3,-3.2,19.2
Cc1ccnc2nc(C(=O)Nc3cc(Cl)ccc3N3CCOCC3)nn12,1.5,2655,-2.2,-46.5,17.3,16.0,16.9
CCOC(=O)c1c(NC(=O)CSc2nnnn2-c2ccccc2OCC)sc2c1CC(C)(C)NC2(C)C,0.1,/,-3.8,-7.0,7.6,4.4,-2.1
CCc1nnc(NS(=O)(=O)c2ccc(NCc3ccccc3O)cc2)s1,-5.4,5977,-9.7,-17.2,13.8,3.1,6.8
O=C(NC1CCCCC1)N1CCc2ccccc21,-4.9,4465,6.4,-40.3,16.5,8.0,-0.1
O=C1CN(C(=O)c2ccccc2)C(c2ccc(F)cc2)c2cc(Br)ccc2N1 (stereo unspecified),0.2,3424,0.9,-7.2,4.6,5.6,5.6
O=C(Nc1ccc(S(=O)(=O)N2CCCC2)cc1)c1ccc(CN2CCc3ccccc3C2)cc1,8.2,2528,-0.3,-16.9,/,/,8.8
COc1cc(OC)cc(C(=O)Oc2c(CN3CCOCC3)cc(Cl)c3cccnc23)c1,5.8,4018,2.1,-10.3,-2.7,2.0,1.7
Cc1nn(CCCC(=O)NCCc2ccccc2)c(C)c1[N+](=O)[O-],8.6,4485,2.0,-17.5,0.1,11.6,5.7
CN(C/N=C(\N)N[N+](=O)[O-])S(=O)(=O)c1ccccc1,/,3460,/,-1.5,/,/,-9.6
Cc1cccc(CN2CCN(C(=O)CCc3nnc(C4CCCCC4)o3)CC2)c1,5.8,2485,1.1,-5.5,-1.5,-15.7,-8.3
COc1ccc(-c2nc3ncccn3c2Nc2ccccc2)cc1,5.9,2029,3.0,-23.5,12.0,8.7,1.6
Cc1ccc(NC(=O)NNC(=O)C2CCN(Cc3ccc(F)cc3Cl)CC2)cc1,0.2,1986,2.0,4.6,9.4,7.3,5.7
CCCCc1nc(C(N)=O)c2[nH]c(=O)n(-c3ccc(OC)cc3OC)c2n1,-3.9,6043,-2.3,-2.8,-5.0,7.9,-10.8
Oc1c(-c2cc(-c3ccco3)[nH]n2)ccc2ccccc12,75.0,3492,67.3,-108.0,4.2,6.5,-20.3
CCCN(Cc1cc2cc(C)ccc2[nH]c1=O)S(C)(=O)=O,2.0,8139,0.5,-19.3,5.0,-0.6,-4.0
O=C(Cn1cnc2ccccc21)N1CCN(S(=O)(=O)c2ccccc2)CC1,1.3,4522,0.0,-13.5,17.8,-0.5,5.2
Nc1nonc1-n1nnc(C(=O)NN=Cc2ccc(OCc3ccc(F)cc3)cc2)c1COc1ccccc1,4.7,/,3.8,/,9.2,-1.7,/
CCOc1ccc(C(=O)N(CN2CCCC2=O)c2ccccc2)cc1,3.2,19439*,7.5,-14.7,8.5,4.8,-0.6
Clc1ccccc1OCc1nnc(-c2ccccc2Br)o1,21.3,4897,8.2,-88.3,17.5,8.9,1.4
CC(C)(C)c1ccc(CN2C(=O)c3ccccc3S2(=O)=O)cc1,26.9,3971,-0.3,-27.5,-7.1,-1.3,1.4
O=C(CN1c2ccccc2Sc2ccccc21)NNC(=O)Nc1cccc(Cl)c1,66.9,4158,83.4,-16.7,3.6,10.7,0.7
CC(=O)N/C(=N/c1nc(C)cc(C)n1)Nc1cccc(C)c1C,8.5,2813,1.7,16.0,-2.8,8.0,-6.1
O=C(/C=C\Nc1cccc(F)c1)c1ccc2c(c1)OCO2,-1.4,?,1.4,43.7,12.2,2.8,-5.5
O=C(NCc1ccccc1)C(c1ccccc1F)N(CC1CCCO1)C(=O)c1ccccn1 (stereo unspecified),5.1,3797,2.3,-10.3,11.8,-4.6,-5.5
